Bioassay records from PubChem BioAssay.
PINK1 expr mod – PINK1 expression modulation | Potency, µM (doses to about 76.6 µM), inactives show at the top dose activation (PINK1 increase), actives largely listed as activators | AID 624263 | PINK1 immunofluorescence, high-content cytometry, 24 h | 0.2% of 410,000 active; active = well fitted activation curve with a large enough effect; inconclusive = small, poorly fitted or top-dose-only effect; inactive = flat fitted curve, though single readings scatter; cell line not stated here;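 further: potency means the concentration at half of the fitted maximal effect; % of control where 0% means no effect; nearly all actives have a fitted effect of over 65% in size; a mitochondrial uncoupler was the plate control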
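PINK1 protein, normally rapidly degraded, was detected by immunofluorescence after 24 hour compound treatment of a stable cell line. Titration data (5 concentrations) came from laser-scanning cytometry, with CCCP-treated wells as controls.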
gsp ag – activates gsp, the McCune-Albright syndrome mutation; gsp mutant cells, cAMP HTRF, 30 min; control for the full effect not named in the record; Potency, µM (titrated, usually from 76.9 µM), without a hit: top-dose activation (cAMP increase), actives largely listed as activators; 0.13% of 340,000 active; AID 624287; active = well fitted activation curve with a large enough effect; inconclusive = small, poorly fitted or top-dose-only effect, or another doubt; inactive = no such curve, though single readings can be large or run the other way; cell line not stated here;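 further: phosphodiesterase inhibitor Ro 20-1724 added with compounds to block cAMP breakdown; potency means the concentration at half of the fitted maximal effect; nearly all actives have a fitted effect of over 60% in size; about a fifth of the inactives were tested at one dose only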
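Cells stably selected in G418 were plated at 2000/well, grown 16-24 hr, then given compounds in DMSO with the PDE inhibitor […] (300 uM solution added) for 30 min at 37C; cAMP was read by HTRF.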
gsp antagonist – antagonists of gsp mutant (McCune-Albright syndrome); 0.4% of 340,000 active; gsp-mutant cells, cAMP HTRF, 30 min; control for the full effect not named in the record; Potency, µM (doses to about 76.9 µM), without a hit: top-dose activity change, negative = inhibition, usual class: inhibitors; AID 624288; active = falling curve of any shape with a large fitted effect; inconclusive = falling curve, mostly with a smaller effect; inactive = flat or rising curve; cell line not stated here;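 further: intracellular cAMP measured with PDE inhibitor Ro 20-1724 present during compound exposure; potency means the concentration at half of the fitted maximal effect; on the % scale 0 is the no-effect control and ±100 the full control effect; nearly all actives have a fitted effect of over 65% in size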
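HTRF cAMP read-out (cAMP-d2 plus anti-cAMP antibody-K in lysis buffer, 30 min RT). Before lysis, cells are exposed to compounds with […] for 30 min at 37C in DPBS containing Ca/Mg, BSA and Tween 20.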
ClpP mod – qHTS Assay for Activators of ClpP. ATP-dependent Clp protease proteolytic subunit (Bacillus subtilis (strain 168)), P80244. purified B. subtilis ClpP, FRET peptide cleavage, 20 min. Potency, µM (highest dose often 57.5 µM), for the others: at the top dose activity change, negative = active. 1.9% of 340,000 active; active = well fitted falling curve with a large enough effect; inconclusive = small, poorly fitted or top-dose-only effect; inactive = no such curve, though single readings can be large or run the other way; further: potency means the concentration at half of the fitted maximal effect; the source files actives as falling curves though it sought activators and does not explain the sign; nearly all actives have a fitted effect of over 65% in size; many hits overshoot -100%
Target sequence (P80244 whole entry, looked up): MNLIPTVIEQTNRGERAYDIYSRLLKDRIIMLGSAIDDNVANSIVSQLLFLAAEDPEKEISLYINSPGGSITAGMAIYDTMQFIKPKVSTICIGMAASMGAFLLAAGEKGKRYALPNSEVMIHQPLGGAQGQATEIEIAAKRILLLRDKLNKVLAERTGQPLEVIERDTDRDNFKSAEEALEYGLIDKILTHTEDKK
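ClpP 10 microg/mL final, pH 8 Tris/KCl buffer with BSA, glycerol, Tween-20; compound pinned in; FRET-FV substrate; RT 20 min; Ex320/Em430; ΔFRET vs ADEP 5.8 microM, DMSO, no enzyme.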
Sfp PPTase inh – Sfp phosphopantetheinyl transferase inhibition | Biochemical Sfp PPTase activity, qHTS | 3.5% of 310,000 active | AID 1490 | Q9F4F7 | Potency, µM, for the others: max response, negative = inhibition, usual class: inhibitors; active means well fitted inhibition curve with a large enough effect; inconclusive means small, poorly fitted or top-dose-only effect, or another doubt; inactive means no such curve, though single readings can be large or run the other way;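 further: the enzyme is Sfp with the accession as filed and its product quenches rhodamine fluorescence; potency means the concentration at half of the fitted maximal effect; 0% = enzyme reaction without inhibitor and -100% = no enzyme wells; top concentration of the series not given in the record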
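With Hepes-Na pH 7.6 buffer containing 10 mM MgCl2, Sfp (15 nM) modified BHQ-2-YbbR (12.5 uM) using rhodamine-CoA (5 uM). Two reads 30 minutes apart at 525/598 nm yielded each well's rate.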
D2 agonist – human D2 receptor agonism in beta-arrestin assay | P14416 | DiscoveRx PathHunter D2 beta-arrestin, luminescence, 90 min; 100% = 57 uM dopamine signal | activation, % (test concentration not listed) | 0.084% of 360,000 active; in the data active = activation above about 40%; inconclusive = about 15% to 40%; inactive = below about 15%; further: compound concentration not given in the record; the text of the record calls up to 30% inactive
Target sequence (P14416 whole entry, looked up): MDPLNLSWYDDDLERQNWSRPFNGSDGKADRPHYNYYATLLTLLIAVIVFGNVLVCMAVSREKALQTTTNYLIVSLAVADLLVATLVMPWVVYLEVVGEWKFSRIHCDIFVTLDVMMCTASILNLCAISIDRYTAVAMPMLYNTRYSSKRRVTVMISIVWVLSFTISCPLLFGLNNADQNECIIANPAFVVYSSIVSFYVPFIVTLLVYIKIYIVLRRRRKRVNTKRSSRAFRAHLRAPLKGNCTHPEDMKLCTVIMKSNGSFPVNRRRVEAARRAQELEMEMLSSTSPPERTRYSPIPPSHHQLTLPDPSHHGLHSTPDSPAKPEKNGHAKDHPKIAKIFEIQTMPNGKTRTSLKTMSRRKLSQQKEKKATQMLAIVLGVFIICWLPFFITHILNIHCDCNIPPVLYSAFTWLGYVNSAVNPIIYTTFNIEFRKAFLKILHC
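DiscoveRx PathHunter D2 beta-arrestin cells (2,100/well) attached overnight, then compound-stimulated 90 min at 37 C in HBSS/10 mM HEPES/0.1% Tween-20 buffer; beta-galactosidase complementation read by luminescence after 1 h at ambient temperature. Dopamine 57 uM final (EC100) as control.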
Menin MLL FP FL – menin-MLL binding inhibition, fluorescein peptide. Fluorescence polarization, fluorescein-MLL peptide displacement from menin. FP activity change, % at 61.4 µM. 290,000 tested, under 10 active. AID 1766; inconclusive = falling polarisation curve, or a change in total fluorescence; inactive = total fluorescence flat and polarisation flat or rising; no compound was filed as active; the % refers to the polarisation; negative = inhibition;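 further: % of control where 0% means no effect; inhibitors lower the polarisation; unlabelled MLL peptide was the positive control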
* marks the source's active call; other numbers are inactive results; ? = inconclusive; / = not tested or not shown; & = joins results of further samples; [ ] = dose if it differs, or a comment.

SMILES | PINK1 expr mod | gsp ag | gsp antagonist | ClpP mod | Sfp PPTase inh | D2 agonist | Menin MLL FP FL
COc1ccc(CNC(=O)c2ccc(S(=O)(=O)N3CCCC3)cc2)cc1OC | -0.3% | -7% | -5% | -4.9% | 5% | -1.7 | -4.4
COc1ccc(N(C(=O)c2snc(C(N)=O)c2N)C(C(=O)NC2CCCCC2)c2ccc(F)cc2)c(OC)c1 (stereo unspecified) | -4.0% | -1% | 4% | / | 5% | -3.0 | /
Cc1cccc(Nc2nnc(-c3ccc(C(=O)N4C[C@H]5C[C@H](C4)c4cccc(=O)n4C5)cc3)c3ccccc23)c1 | -0.5% | 4% | -20% | -4.3% | 3% | -1.0 | 7.3
CC(Sc1n[nH]c(-c2cccs2)n1)C(=O)Nc1ccccc1F (stereo unspecified) | 0.1% | 13% | -13% | 0.2% | / | 1.0 | /
Cc1ccc(CNC(=O)CCC2CCCN(Cc3cccc4c3OCO4)C2)o1 (stereo unspecified) | 1.6% | 4%[15.4 µM] | -3% | / | 12% | -5.9 | 3.8
CC1CC(C)CN(C(=O)COC(=O)CCc2nc3ccccc3c(=O)[nH]2)C1 (stereo unspecified) | 1.7% | -4% | 16% | 1.3% | -3% | -3.5 | 3.6
COc1ccccc1Cn1nnc2c(=O)[nH]c(C3CCN(C(=O)c4ccc(F)cc4)CC3)nc21 | -1.7% | 0% | -4% | -0.1% | 10% | -3.2 | 1.6
C[C@@H]1CN([C@@H](C)CO)C(=O)c2cc(N(C)C)ccc2O[C@@H]1CN(C)Cc1ccncc1 | -0.7% | 20% | -2% | 0.2% | / | -3.4 | /
CC1CCN(c2oc(Cc3cccc4ccccc34)nc2C#N)CC1 | 0.7% | 19% | 6% | -11% | 9% | 1.0 | 2.1
NNC(=O)c1ccc(S(=O)(=O)N2CCc3ccccc32)cc1 | 1.6% | 14%[15.4 µM] | -7% | -0.4% | 16% | 7.2 | 0.0
N#C/C(=C(/O)COc1ccccc1)c1nc2ccccc2s1 | ? | -13%[15.4 µM] | / | / | 9% | 0.2 | -4.8
Cc1cc(OCC(=O)NC2CC2)c2c(C)c(C)c(=O)oc2c1 | 2.6% | 2% | -1% | 3.6% | 17% | 0.1 | /
CCOC(=O)c1c(-c2cccc([N+](=O)[O-])c2)csc1N | 0.0% | -61%[inhibitor] | -6% | 0.7% | -14% | 2.9 | 3.9
O=C(CCC(=O)N1CCN(c2ccccc2F)CC1)N1CCN(c2ccc(F)cc2)CC1 | 3.4% | 6%[15.4 µM] | -3% | -1.0% | 9% | 1.4 | 5.4
COc1cccc(-c2nc(C(=O)NCC3CCCO3)cc3c2[nH]c2ccccc23)c1 (stereo unspecified) | -0.9% | / | 13µM* | 4.5% | -1% | 6.4 | 2.1
CCCS(=O)(=O)NCCc1cc2c(C)ccc(C)c2[nH]c1=O | 0.9% | ? | 2% | 5.2% | 2% | 0.1 | -2.5
O=C(NCC1CCCN(Cc2cccc(OCCO)c2)C1)c1ccc(F)cc1 (stereo unspecified) | -0.6% | -46%[inhibitor] | -5% | -3.6% | 14% | -1.8 | -0.1
N#Cc1c(-c2ccc(F)cc2)ccnc1N1CCOCC1 | -0.8% | ? | 2% | / | 12% | 2.0 | 3.9
CCOc1ccc2nc(NC(=O)CSc3nc4c(c(=O)n(C)c(=O)n4C)n3C(C)C)sc2c1 | -3.5% | -14% | 22% | -0.2% | 4% | -4.9 | -2.2
Cc1ccc(SCC(=O)Nc2c(Br)cnn2C)cc1 | 2.2% | 29% | -4% | / | 7% | 2.6 | -1.8
C#CCSc1cc(C(F)(F)F)nc(-c2ccccn2)n1 | -0.1% | -3%[15.4 µM] | -4% | / | -7% | -22 | 1.6
NS(=O)(=O)c1cc(C2(O)NC(=O)c3ccccc32)ccc1Cl (stereo unspecified) | 0.0% | / | 8% | 0.8% | 8%&4% | -4.9 | 0.1&2.6
Cn1cc(Cl)c(C(=O)N/N=C/c2ccc(OS(=O)(=O)c3ccccc3)cc2)n1 | 6.6%[38.3 µM] | -19% | -34% | 0.5% | 14% | -0.2 | -1.2
CC(O)[C@@H](NC(=O)C1CCC(CNC(=O)[C@H](Cc2ccccc2)NC(=O)OC(C)(C)C)CC1)C(=O)O (stereo partly specified) | -1.7% | -2% | 4% | -1.1% | 2% | 3.1 | 6.1
Cc1c(NC(=O)COc2cccc(F)c2)c(=O)n(-c2ccccc2)n1C | 1.0% | 4% | 14% | -1.3% | / | 1.2 | /
Following part:
SMILES | PINK1 expr mod | gsp ag | gsp antagonist | ClpP mod | Sfp PPTase inh | D2 agonist | Menin MLL FP FL
COc1ccccc1NC(=S)N(Cc1ccccc1)Cc1ccccn1 | -2.6% | 23%[15.4 µM] | -11% | -1.4% | -1% | 1.4 | /
CN(Cc1cccs1)C(=O)C1CCN(S(=O)(=O)c2ccccc2)CC1 | 0.6% | 4% | 8% | -0.5% | / | 1.7 | /
CC1CCN(S(=O)(=O)c2ccc(-c3nnc(SCc4cccnc4)o3)cc2)CC1 | 4.9%[38.3 µM] | -30%[inhibitor] | 5% | -2.0% | -10% | -0.9 | 5.5
COc1cc(OC)cc(-c2c(-c3cccs3)c3cc(-c4cccc5[nH]ccc45)ccc3n2C)c1 | 1.1% | -7% | 7% | 3.5% | / | -0.6 | /
CCc1ccc(OCC(=O)Nc2ccc(-c3cc4ccccc4oc3=O)c(OC)c2)cc1 | 11% | ? | -6% | 35µM* | 23% | -0.5 | -1.0
c1ccc(-c2nnc(SCc3nnc(-c4cccs4)o3)o2)cc1 | 5.5% | 18% | 3% | -6.2% | -8% | -4.2 | 0.9
COc1ccc(S(=O)(=O)N2CCCCCC2)cc1C(=O)OCC(=O)NC1CCS(=O)(=O)C1 (stereo unspecified) | 0.7% | -9% | 2% | 2.4% | / | -1.1 | /
CC(=O)Nc1ccc(S(=O)(=O)NCc2cn3c(C)csc3n2)cc1 | -1.8%[38.3 µM] | 1% | 3% | -1.4% | 5% | -1.1 | 5.2
Cc1ccc(OCC(=O)Nc2cccc(S(=O)(=O)N3CCOCC3)c2)c([N+](=O)[O-])n1 | 1.6% | 7%[15.4 µM] | 5% | / | 16% | 1.6 | -4.2
CC(C)CN(C(=O)COC(=O)c1ccc(Br)o1)c1c(N)n(Cc2ccccc2)c(=O)[nH]c1=O | 1.8% | -17% | 6% | 3.3% | / | 2.8 | /
Cc1cc(C)cc(NC(=O)C2CCCN(S(=O)(=O)c3ccc4[nH]c(=O)ccc4c3)C2)c1 (stereo unspecified) | 7.6% | -52%[inhibitor] | -10% | 6.3% | 18% | -2.5 | 0.7
O=[N+]([O-])c1ccc(CN2CCN(c3nc4ccccc4s3)CC2)cc1 | 7.3% | -32%[inhibitor] | -1% | / | -2% | -4.3 | 1.5
COc1ccc(N2CCN(C(=O)CNC(=O)c3nn(-c4ccc(OC)cc4)c(=O)c4ccccc34)CC2)cc1 | 2.1% | -15% | -8% | / | 5% | -0.7 | 0.1
COc1ccc(C(=O)NNC(=O)c2cccc(F)c2)cc1 | 0.5% | -2%[15.4 µM] | 12% | / | ? | -6.6 | -1.5
Cc1ccc([C@@H]2CC=C(C(=O)O)[C@H](c3ccc(Br)cc3)N2S(=O)(=O)c2ccc(C)cc2)cc1 | -0.8% | / | -12% | 1.6% | / | 2.1 | /
O=C(c1ccc(OC(F)(F)F)cc1)c1ncc[nH]1 | 0.0% | -59% | 2% | -0.5% | 12% | -9.1 | -1.2
O=C(NCc1ccccc1F)C1CCN(C(=O)NCc2ccccc2)CC1 | -1.7% | -19% | 2% | -6.1% | 2% | 0.5 | 0.9
OCCC1CN(Cc2cccn2-c2nccs2)CCN1Cc1ccccc1 (stereo unspecified) | -0.6% | -22% | 7% | -0.8% | 4% | -1.9 | 0.5
S=C(NCCc1ccccc1)Nc1ccc(Cl)cc1Cl | -0.1% | -15% | -7% | 0.2% | -22% | -3.0 | 2.5
COc1ccc(C(=O)NNC(=O)c2cc(C)[nH]n2)cc1 | 1.2% | 28% | 13% | -2.3% | -10% | 5.3 | 2.7
COc1cccc2[nH]c3c(N4CCc5ccccc5C4)ncnc3c12 | 11% | -10%[15.4 µM] | -5% | / | 13% | -2.1 | 4.0
COc1ccc(NS(=O)(=O)c2ccc(SC)cc2)c(OC)c1 | 2.7%[38.3 µM] | 25% | ? | -2.2% | 2% | 2.2 | 3.2
COc1cc2nc(CSc3nc(-c4ccc(F)cc4)cs3)[nH]c(=O)c2cc1OC | 13% | 2% | 15% | 0.5% | -13% | -2.7 | 3.7
COc1cc(OC)c(NC(=O)c2ccoc2C)cc1Cl | 2.0%[38.3 µM] | -24% | 4% | -0.9% | 0% | -2.8 | 1.6
CCOC(=O)c1cc2c(ccc3ccccc32)oc1=O | 1.0% | -45%[inhibitor] | -16% | 4.6% | 9% | 0.7 | 4.5
Following part
SMILES | PINK1 expr mod | gsp ag | gsp antagonist | ClpP mod | Sfp PPTase inh | D2 agonist | Menin MLL FP FL
O=C(NC(Cc1ccccc1)C(=O)O)/C(=C/c1ccc([N+](=O)[O-])cc1)NC(=O)c1ccccc1Br (stereo unspecified) | -4.4% | -5% | 18% | 2.0% | 20% | 1.0 | -5.6
Cc1nc2cnc(N3CCOCC3)nc2n(Cc2cccs2)c1=O | 0.3% | / | / | / | -2% | / | 6.9
CCOC(=O)N1CCN(C(=O)CSc2nnc(Cc3cccn3C)n2CCc2ccccc2)CC1 | -2.8%[38.3 µM] | -56%[inhibitor] | 0% | -1.2% | 1% | -0.1 | 4.3
COc1ccccc1CNC(=O)CSc1ccc(-c2cccc([N+](=O)[O-])c2)nn1 | 4.5% | -2%[15.4 µM] | 7% | / | 14% | -3.4 | -1.2
Cc1snc(SCC(=O)c2ccc(F)cc2)c1C#N | 3.4% | 7%[15.4 µM] | 14% | / | 4% | 8.8 | -1.8
O=C(Nc1c(F)cccc1F)C1CCN(C(=O)c2cccs2)CC1 | 3.4% | -56%[inhibitor] | 6% | / | 10% | 11 | 0.6
CC(=O)c1c(C)[nH]c(C(=O)CN2C(=O)NC(CCc3ccccc3)C2=O)c1C (stereo unspecified) | 0.8% | -6% | -10% | -1.0% | 4% | -1.1 | 6.3
